MT1-MMP act inh: blocks activation of human MT1-MMP | P50281 | HT1080 RFP-PRO-GFP cells, GFP/RFP ratio fluorescence, overnight; percent of plate control window, DMSO zero | GFP/RFP ratio change, % at 20 µM | hit rate 0.061% among 360,000;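 active = GFP/RFP ratio change of at least 30% with cell ATP level not reduced by more than half and red fluorescence within 50% of control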; note: strong numbers were not always called active
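Assay system – RFP-PRO-GFP reporter HT1080 cells · Compound dosing – single dose of 20 µM compound, 1% DMSO final · Incubation – overnight compound exposure at 37 °C · Measure – GFP/RFP fluorescence ratio · Benchmarks – DMSO wells and RFP-L50D-GFP cells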
UUG fidelity: alters start codon recognition fidelity in yeast | hit rate 0.13% among 350,000 | activity score, % at 18.7 µM | S. cerevisiae UUG-firefly luciferase reporter, luminescence/redox ratio;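 active = replicate mean at a twofold rise or more, about +100% in these data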;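 note: firefly luciferase made from a UUG start codon reports start codon fidelity; reporter light over untreated wells divided by growth signal over untreated wells; some hits fall short of that in this replicate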
PABP polyA inh: PABP-poly(A) binding inhibition; P11940; hit rate 1% among 290,000; PABP-poly(A) RNA binding, fluorescence polarization; inhibition, % at 35 µM;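 active = 50% or more with normal probe brightness, or confirmed in later tests; inconclusive = above 50% with abnormal brightness, or retests that disagree; inactive = below 50% or failed in later tests; about a fifth of its hits are not listed in these tables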;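 note: calls also rest on retests at 20 µM and on dose response follow-up; controls were probe without protein and protein plus probe with vehicle; some compounds called inactive have numbers as strong as hits; many hits fall short of the cut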
Rce1 inh: blocks yeast Ras-converting enzyme; Q03530; yeast membranes, quenched prenylated peptide cleavage fluorescence; calls only; hit rate 0.27% among 290,000;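 active = fall in fluorescence gain of 50% or more versus controls, with final raw signal at or below 3038400; inconclusive = same 50% fall but final raw signal above 3038400; inactive = fall in fluorescence gain under 50%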;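 note: plate controls were neutral control wells for no effect and wells lacking membranes for full effect; tested at 10 µM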
Target sequence (Q03530 whole entry, looked up): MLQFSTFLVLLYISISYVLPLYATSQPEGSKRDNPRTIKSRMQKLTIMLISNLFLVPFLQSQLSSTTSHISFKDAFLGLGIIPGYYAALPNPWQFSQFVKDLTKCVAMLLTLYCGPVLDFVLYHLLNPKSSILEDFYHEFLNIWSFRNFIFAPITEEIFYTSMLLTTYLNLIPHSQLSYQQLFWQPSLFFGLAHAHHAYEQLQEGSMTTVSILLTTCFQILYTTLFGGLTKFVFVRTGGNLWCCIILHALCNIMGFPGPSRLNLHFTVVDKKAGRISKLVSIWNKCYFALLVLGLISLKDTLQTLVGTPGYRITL
CSC inhib: blocks cancer stem cells | AID 2717 | inhibition, % at 7.5 µM | cancer stem cell-like cells viability, luminescence | hit rate 1.1% among 300,000;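 active = mean at 75% or more and at least half the replicates too; inconclusive = mean and replicates disagree; tested in HMLE shEcad cells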;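 note: 0% = median of negative and 100% = median of positive control wells; the first replicate is given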
eIF4H FP inh: inhibitors of RNA binding by human eIF4H. Q15056. eIF4H fluorescence polarization binding assay. inhibition, % at 35 µM. hit rate 0.94% among 290,000. AID 2012;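 active = 50% or more with normal probe brightness, or confirmed in later tests; inconclusive = above 50% with abnormal brightness, or retests that disagree; inactive = below 50% or failed in later tests; about a fifth of its hits are not listed in these tables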;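 note: calls also rest on retests at 20 µM and on dose response follow-up; 0% = protein and probe with vehicle and 100% = probe without protein; strong numbers were not always called active; many hits fall short of the cut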
HIV Env fusion: inhibitors of HIV Env-mediated cell fusion; HeLa-JRFL Env/CEM21 cell fusion, luciferase; inhibition, % at 12.3 µM; hit rate 1.1% among 360,000; AID 651610;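 active = mean replicate inhibition score of at least 50 and every replicate individually at or above 50; inconclusive = only one of the two criteria met; inactive = mean below 50 and not all replicates reaching 50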;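 note: 0% = plate neutral controls and 100% = maraviroc near 300 nM; one replicate is shown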
eIF4H FP inh retest: further read-out of eIF4H FP inh, marked with its call; inhibition, %; compound at 20 µM; confirmation average;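 mean of two retest wells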
PABP polyA inh retest: also measured in PABP polyA inh; calls as there; inhibition, %; compound at 20 µM; confirmation repeats;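 mean of two retest wells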
MT1-MMP act inh RFP: recorded beside MT1-MMP act inh, whose call it bears; RFP signal change, %; measured here: RFP expression control read;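 0 = vehicle wells; hits needed this value within 50% of zero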
* = called active by the depositor; i = inactive; ? = inconclusive; . = not tested or not shown.

SMILES	MT1-MMP act inh	MT1-MMP act inh RFP	UUG fidelity	PABP polyA inh	Rce1 inh	CSC inhib	eIF4H FP inh	HIV Env fusion	others
COCCn1c(SCC(=O)c2c(-c3ccccc3)n(C)c3ccccc23)nnc1-c1ccncc1	2	4	0	-10	i	6	-8	18
NC(=O)c1ccc(NC(=O)COc2cccc3ccccc23)cc1	1	3	-13	-4	i	-9	2	-6
CCc1ccc(OCCOCC(O)CNC2CCCC2)cc1 (centres undefined)	2	4	.	6	i	10	-6	-2
COc1ccc(S(=O)(=O)N2CCOCC2)cc1NC(=O)COc1ccc2ccc(=O)oc2c1	0	-2	-12	.	.	-15	.	-9
Cc1ccc(Cl)cc1N1CCN(C(=O)CCC(=O)O)CC1	-3	3	-9	-1	i	9	5	.
CCN(CC)C(=O)CS(=O)CC(=O)Nc1cc(OCCOC)c(Cl)cc1Cl (centres undefined)	-2	1	.	3	i	11	-11	8
O=C(Cn1cc(C(=O)C2CC2)c2ccccc21)NCC1CCCO1 (centres undefined)	-6	2	9	-8	i	-2	-7	4
N#Cc1ccc(S(=O)(=O)N2CCCN(c3nc4ccc(Cl)cc4s3)CC2)cc1	-2	-21	-13	7	i	-8	12	55*
O=C(NCc1ccc(Cl)cc1)NCc1ccc(Cl)cc1	0	0	.	-2	i	-1	2	-1
COc1cccc(-c2ncc3ccccc3c2COC(=O)N2CCCCC2)c1	-4	-7	-5	.	.	17	.	36
O=C(O)/C=C/C(=O)Nc1ccc(OC(F)(F)Cl)cc1	-1	4	.	0	i	-2	-8	10
N/C(=N\OC(=O)Nc1ccc(Cl)c(Cl)c1)c1ncc(C(F)(F)F)cc1Cl	-4	0	.	-12	i	.	-3	.
COc1ccc(NC(=O)Nc2cc(C)ccc2F)cc1	0	-3	1	4	i	5	8	-63
CCOC(=O)N1CCN(C(=O)CSc2ccc3nnc(CCNC(=O)c4ccc(OC)cc4)n3n2)CC1	-1	3	.	7	i	-5	3	11
Cc1ccc(NC(=O)c2nc(C)n(-c3ccc([N+](=O)[O-])cc3)n2)cc1	15	4	-17	1	i	-8	-7	.

Brought forward from above: two entries, then new ones.
SMILES	MT1-MMP act inh	MT1-MMP act inh RFP	UUG fidelity	PABP polyA inh	Rce1 inh	CSC inhib	eIF4H FP inh	HIV Env fusion	others
CCOC(=O)N1CCN(C(=O)CSc2ccc3nnc(CCNC(=O)c4ccc(OC)cc4)n3n2)CC1	-1	3	.	7	i	-5	3	11
Cc1ccc(NC(=O)c2nc(C)n(-c3ccc([N+](=O)[O-])cc3)n2)cc1	15	4	-17	1	i	-8	-7	.
COc1ccc(-n2c(Cc3cccn3C)nnc2SCC(=O)NCc2ccccc2Cl)cc1	2	2	-1	-16	i	0	-14	?
Cc1ccc(-n2c(-c3cccc(C)c3)n[nH]c2=S)cc1	5	0	-20	-11	i	-13	-1	.
O=C(CCOc1ccccc1)N1CCN(S(=O)(=O)c2cccs2)CC1	2	4	-16	-8	i	-10	-5	.
O=C(c1ccco1)N1CCN(C(=O)C2CCN(S(=O)(=O)c3cnc[nH]3)CC2)CC1	0	-4	-10	6	i	6	-4	-21
COc1cccc(OCc2cc(C(=O)N(C)Cc3nccn3C)no2)c1	-1	4	-12	-10	i	-12	-8	-53
COc1ccc2cc(/C=N/NC(=O)CN(c3ccccc3C)S(=O)(=O)c3ccccc3)c(Cl)nc2c1	3	1	5	-7	i	19	-13	.
c1ccc(C2CCC3(CC2)Oc2ccccc2C2CC(c4cccnc4)=NN23)cc1 (centres undefined)	.	.	.	-6	i	2	-5	.
Cn1cc(C(=O)C(=O)NCCc2ccccc2)c2ccccc21	1	2	-2	-3	i	.	0	-66
C=CCn1cc(/C=N/NC(=O)COc2cccc3cccnc23)c2ccccc21	2	-2	.	8	i	6	-5	-53
O=C(CNC(=O)c1ccccc1)NCC(O)c1ccc([N+](=O)[O-])cc1 (centres undefined)	2	4	-20	4	i	0	1	11
O=C(COC(=O)/C=C/c1cccc(C(F)(F)F)c1)NCCN1C(=O)CSC1=O	3	2	-11	.	.	.	.	-12
CC(C)(C)c1cnnn1-c1ccc(NC(=O)c2ccc(Br)o2)cc1	1	-6	-18	-3	i	-15	-8	.
Cc1nc(SC2C=CS(=O)(=O)C2)n[nH]1 (centres undefined)	0	1	.	31	i	5	1	.
CCNC(=S)N/N=C/c1ccc(OCc2ccc(C(=O)OC)cc2)cc1	-2	-1	.	-12	i	14	2	-24
Fc1ccccc1CSc1nnc(-c2cnccn2)n1Cc1ccco1	0	1	-6	-10	i	12	3	.
COc1ccc(/C=C(\NC(=O)c2ccc(OC)c(OC)c2)C(=O)NCCc2c[nH]c3ccccc23)cc1	-4	-4	-23	-9	i	.	-12	-26
CCOc1ccc2cc(C#N)c(SCC(=O)NC(C)CC)nc2c1 (centres undefined)	.	.	.	38	i	.	25	.
Cc1ccc(CNc2ccc(N3CCN(C)CC3=O)cc2)cc1	4	4	-13	.	.	.	.	-81
CC(CCc1ccccc1)NC(=O)CSc1cccc[n+]1[O-] (centres undefined)	-1	2	.	-2	i	16	-2	-5
c1cc2c(cc1C1=NNC(=NC3CC3)SC1)OCCO2	-6	2	.	-8	i	28	-2	65*
CCC(C)[C@H](NC(=O)N1CCC(C)CC1)C(=O)OC (some centres undefined)	0	6	.	4	i	-4	-5	9
CC(C)c1ccc(Nc2c([N+](=O)[O-])c(=O)n(C)c3ccccc23)cc1	3	-6	-7	3	i	14	-10	-4
O=C(OCc1cn(-c2ccc(Cl)cc2)nn1)c1ccccc1	0	0	-2	-11	i	-14	-2	-24
N#CC1=C2SCN(c3ccc(F)cc3)CN2C(=O)CC1c1cccc(F)c1 (centres undefined)	-4	5	-15	57	i	6	43*	.	eIF4H FP inh retest=68*;PABP polyA inh retest=35
CN(c1ccccc1)S(=O)(=O)c1ccc(Cl)c(C(=O)OCC(=O)NC2CCS(=O)(=O)C2)c1 (centres undefined)	0	6	.	-15	i	-13	0	-1
COc1ccc([C@H]2CC(=O)C=C(c3ccc4c(c3)OCCO4)C2)cc1	3	5	6	.	.	42	.	-2
Cn1c(SCC(=O)N/N=C/C=C\c2ccco2)nc2ccccc21	-3	7	-16	56*	i	3	90*	-52	eIF4H FP inh retest=98*;PABP polyA inh retest=91*
CCCN1C(=O)c2ccccc2NC1c1ccc(OC)cc1O (centres undefined)	2	3	-10	-4	i	41	-2	.
CCCCCn1c(=O)[nH]c2cc(C(=O)N3CCN(Cc4ccc5c(c4)OCO5)CC3)ccc2c1=O	6	-16	-14	-7	i	32	1	67*
O=c1[nH]c(/C=C/c2ccccc2Cl)nc2ccccc12	1	-1	-13	1	i	.	33	-343
O=C(NCc1ccco1)c1ccc(Cl)s1	0	3	.	6	i	-19	0	-1
Cc1cc(C(=O)N2CCN(Cc3ccccc3)CC2)on1	-3	1	-14	1	i	-1	3	16
O=c1c(-c2ccnn2-c2cccc(Cl)c2)cnc2n1CCS2	1	0	-4	-9	i	-10	-4	-27
Cc1cccc(-c2nc(Nc3cccc(O)c3)c3ccccc3n2)c1	-2	-2	-8	0	i	81*	1	9
COCC(=O)Nc1nnc(SCC(=O)N2CCCCC2)s1	2	3	-19	-8	i	-18	-6	4
O=C(NCc1ccc2c(c1)OCO2)c1sccc1Br	0	2	.	-6	.	2	-2	0
COc1ccc(NC(=O)CN2CCC3(O)CCCCC3C2c2ccccc2OC)cc1 (centres undefined)	.	.	.	-1	i	.	-6	.
Cn1c(=O)n(C)c2cc(NC(=O)CCc3ccccc3)c(Br)cc21	12	-1	-16	2	.	-15	-9	-11
Nn1c(SCc2ccccc2F)nnc1-c1ccccn1	3	3	-29	61*	i	-11	4.1*	-15	eIF4H FP inh retest=78*;PABP polyA inh retest=55*
O=C(NC(=O)c1ccccc1F)Nc1nc(-c2cccs2)cc(C(F)(F)F)n1	-4	-2	-7	4	i	2	-6	8
OC1(C#CCCN2CCCCC2)c2ccccc2-c2ccccc21	-6	-1	-11	44	i	-12	2	-6
COc1ccc(C(C)C)cc1-c1cncc(NC(C)=O)n1	-5	-1	0	.	.	.	.	4
Cn1c(SCc2nc3ccccc3n2CCO)nc2ccccc21	0	0	-6	1	.	0	-2	-75
CC(=O)N1N=C(c2ccc(Br)cc2)OC12CCCC2	-1	4	.	2	i	21	0	-8
CCOC(=O)N1CCC(NC(=O)c2cc(S(=O)(=O)N3CCOCC3)ccc2F)CC1	-3	-1	.	8	i	9	-2	.
O=C(Nc1ccccc1)NC1(C(=O)NCc2cccs2)CCCCC1	-2	0	-3	-7	i	1	-11	7
O=C(C1=C(O)C(=O)N(Cc2ccco2)C1c1cccs1)c1cccs1 (centres undefined)	-3	2	.	13	i	-14	23	-18
CCOc1cccc2sc(=NC(=O)c3ccco3)n(CC(=O)OC)c12	-3	-9	.	7	i	14	-13	-98
CC1(C(=O)NS(=O)(=O)c2cccc(Cl)c2)CCN1C(=O)CC1CCCCC1 (centres undefined)	-2	0	-6	.	.	.	.	-1
Cc1nn(Cc2ccccc2)c(C)c1C(=O)N1CCN(CC(=O)Nc2ccccc2Cl)CC1	1	-3	5	.	.	.	.	14
CCOc1cccc2sc(N(CCN(C)C)C(=O)/C=C/c3cccs3)nc12	2	4	3	-15	i	0	-7	.
O=C(O)C1=CCNCC1	2	3	-12	.	i	-8	.	-9
COc1ccc(NS(=O)(=O)c2cccc(C(=O)NNC(=O)c3ccccc3OC)c2)cc1	1	-6	.	.	i	-4	.	4
N#Cc1c(-c2ccco2)nc(SCc2ccc(F)cc2)[nH]c1=O	-8	0	-15	21	i	28	-8	.
COc1cc(C(=O)NCC(=O)N2CC=C(c3ccccc3)CC2)cc(OC)c1OC	3	1	11	.	i	4	.	-7
COc1ccc(C(=O)Nc2ccccc2C(=O)Nc2cc(C)ccn2)cc1	-2	-2	-7	-4	i	13	-4	-155
CC(C)n1c(C(=O)OCC(=O)NCc2ccc3c(c2)OCO3)cc2occc21	1	3	.	-3	i	73	-3	.
Cc1ccc(-c2cc(N)n3nc(-c4ccc(C)cc4)cc3n2)cc1	5	3	-9	-1	i	-9	6	.
COc1ccc(CNC(=O)C2CC(C)=C(C)CC2C(=O)O)cc1OC (centres undefined)	-6	0	3	10	i	-11	-8	30
O=C(O)c1ccn(COc2ccc(Br)cc2)n1	0	-1	.	-21	i	1	-8	12

Further results follow.
SMILES	MT1-MMP act inh	MT1-MMP act inh RFP	UUG fidelity	PABP polyA inh	Rce1 inh	CSC inhib	eIF4H FP inh	HIV Env fusion	others
Cc1[nH]c(=O)[nH]c(=O)c1S(=O)(=O)N1CCCC(C(=O)N2CCC(Cc3ccccc3)CC2)C1 (centres undefined)	1	5	18	-5	.	-17	1	-8
Cc1ccc(CNC(=O)C(=O)NCC2OCCN2S(=O)(=O)c2cccs2)cc1 (centres undefined)	0	0	-8	2	i	-6	3	-49
O=C(NCCCN1CCOCC1)c1ccc2c(c1)N(Cc1ccccc1)C(=O)c1ccccc1S2	-2	1	-10	.	i	-5	.	-8
CCOC(=O)C1CCCN(C(=O)c2ccc3c(=O)n(CCOC)c(=S)[nH]c3c2)C1 (centres undefined)	9	-18	6	8	i	-9	-4	66*
CCN(CC)S(=O)(=O)c1cc(NC(=O)COC(=O)C2CCC2)ccc1C	3	3	2	.	.	-10	.	.
O=S(=O)(c1ccccc1)c1ncc(C(F)(F)F)cc1Cl	-2	0	-17	11	i	.	-18	24
COc1cccc(OCCCCN2CC(C)OC(C)C2)c1 (centres undefined)	-8	0	.	20	.	8	10	2
